# Compound activity from PubChem.
# CapD inh: Bacillus anthracis CapD inhibitors, primary screen, biochemical, fluorescence intensity | CapD gamma-glutamyltranspeptidase (Bacillus anthracis Ames Ancestor) | purified CapD enzyme, fluorescence intensity read-out; hits give low values; some hits fall short of the stated cut | z-score (test concentration not listed) | actives 0.23% (n = 140,000) | AID 492967, 2010;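 active = z-score under -4 in either of two replicates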;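 also: stock transfer was 100 nL into about 40 µL; score is relative to mean and spread of the plate; one replicate is shown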
# AID504770: growth inhibition of E. coli YBA685, primary screen, V. cholerae RctB inhibitors; z-score (no concentration beside the values); actives 0.27% (n = 130,000); E. coli YBA685 rctB-dependent plasmid, OD600 growth, 3 h; hits give low values; AID 504770, 2011;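 active = z-score under -2 on both plates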;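 also: wells of about 30 µL received 100 nL stock; score is relative to mean and SD of the test wells; the first replicate is given; strong numbers were not always called active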
# * = called active by the depositor; . = not tested or not shown.
SMILES,CapD inh,AID504770
Cc1ccc(S(=O)(=O)N2CCN(C(=O)CCN3C(=O)c4ccccc4C3=O)CC2)cc1,.,0
Fc1ccc(-c2oncc2-c2nnnn2-c2ccc(Cl)cc2)c(F)c1,0.615,0.2
O=C(NC(NCCc1c[nH]c2ccccc12)(C(F)(F)F)C(F)(F)F)c1ccccc1,0.49,-0.2
OCCP(c1ccccc1)c1ccccc1,0.285,-0.75
CCCC(=O)O/N=C(\c1ccccc1)c1ccncc1,-0.54,1.2
CSc1nsc(SCC(=O)OC2CC(C)CCC2C(C)C)n1 (stereo not given),0.31,-0.35
Cc1cc(C)nc(-n2nc(C)c3c2N(C)C(=O)CC3c2ccccc2Cl)n1 (stereo not given),-1.43,1.5
CCOc1ccsc1C(=O)NNC(=O)OCC1CCC2CC1C2(C)C (stereo not given),-0.36,.
CCc1cccc(C)c1NC(=O)c1ccc(OC(C)=O)cc1,-0.195,-0.6
O=C(CCCn1c(SCC(=O)c2ccc(F)cc2)nc2ccsc2c1=O)NCc1ccc2c(c1)OCO2,0.035,-0.65
COc1ccc2nc(NC(=O)Cc3nn(C)c(=O)c4ccccc34)sc2c1,-0.345,.
C/C=C(\C)c1nnc(NC(=O)Cc2ccccc2)s1,0.12,-0.9
CC1CN(Cc2c(-c3ccccc3)nc3ccc(Cl)cn23)CC(C)O1 (stereo not given),11.8,1.2
O=C(NC1CCCC1)c1noc2c1CCc1ccccc1-2,-0.005,0.05
COC(=O)c1sccc1NC(=O)CSc1cc(Cl)ccc1Cl,-0.22,.
CN=c1scc(-c2cccs2)n1/N=C/c1ccccc1O,.,1.25
CCN(CC(=O)Nc1ccc(OC)cc1)C(=O)Cc1cccs1,.,-0.1
C=C(C)C(=O)Nc1ccc(O)cc1C(=O)O,-1.1,-0.05
COc1ccc(-c2nnc3ccc(SCC(N)=O)nn23)cc1,0.285,-1.45
C=CCSc1nc2c(c(=O)n1C1CCOC(C)(C)C1)C1(CCCC1)Cc1ccccc1-2 (stereo not given),-0.19,.
COc1cc2c(cc1OC)C(c1cccs1)N(C(=O)C1CC1)CC2 (stereo not given),.,0.95
CC(=O)Nc1cc(C)nn1C(C)(C)C,0.365,-0.6
CN(C)S(=O)(=O)c1ccc(C(=O)Nc2c3c(nn2-c2ccc(Oc4ccccc4)cc2)CSC3)cc1,0.025,.
CCCCNC(=O)Cn1c(=O)oc2ccccc21,.,1.6
Brc1ccc(Nc2ncnc3c2cnn3-c2ccccc2)cc1,.,0.5

# (list continues)
SMILES,CapD inh,AID504770
CC1=C(C(=O)OC2CCCCC2)C(c2coc3ccc(Cl)cc3c2=O)C2=C(CC(C)(C)CC2=O)N1 (stereo not given),-0.555,.
CCOC(=O)c1ccc(COc2nc3ccccc3nc2-c2ccccc2NC(C)=O)cc1,0.505,0.6
Cc1cc2ncn(CC(O)COCC3CC=CCC3)c2cc1C (stereo not given),-1.05,-0.4
CN(C)c1nc(SCCO)nc(N(C)C)n1,-0.3,1.9
FC(F)(F)c1ccc(-c2ncc(-c3ccncc3)c(-c3ccc(C(F)(F)F)nc3)n2)cn1,-0.295,.
COC(=O)c1ccc(-c2ccco2)n1CC(=O)NC1CCCC1,-1.36,0
O=C(NCCSCc1cc2cccc3c2n(c1=O)CCC3)c1ccc(C(F)(F)F)cc1,-0.285,.
O=C1CC(c2ccco2)CC2=C1C(c1ccccc1)n1c(nc3ccccc31)N2 (stereo not given),16.3,-0.45
CCOC(=O)c1ccc(NC(=O)c2ccc(CN3CC(=O)N4CCCCC4C3=O)cc2)cc1 (stereo not given),0.38,0.1
Cc1c(C(=O)N(Cc2ccccc2)C(C)C)cnn1-c1ccccc1,0.72,-0.1
N#CC(C(=O)NCCc1ccccc1)c1nc2ccccc2nc1N1CCOCC1 (stereo not given),.,0.05
O=C(O)C1C2C=CC3(CN(Cc4cccc(Cl)c4Cl)C(=O)C13)O2 (stereo not given),.,0.55
Cc1ccc(C(=O)N2CCN(c3ncnc4c3cnn4-c3ccccc3)CC2)cc1,.,-4.2*
Cc1ccc2oc(=O)c3cnn(CC(=O)N4CCc5ccccc5C4)c3c2c1,-0.195,-0.9
CN1CCN(CCNC(=O)c2ccc(-n3ccc4ccccc43)s2)CC1,37.4,0
COC(=O)/C=C1/N/C(=N\c2nc(C)cc(C)n2)N(c2ccc(C)c(C)c2)C1=O,0.265,0.7
Cc1cccc(-c2noc(CNC(=O)C(C)(C)Oc3ccc(Cl)cc3)n2)c1,0.375,-0.2
CC(=O)Nc1oc(-c2ccco2)c(-c2ccco2)c1C#N,.,-0.1
Cc1nc(-c2c(C(=O)NNC(=O)OCC3CC3C)noc2C)cs1 (stereo not given),0.265,.
Cc1ccc(CNS(=O)(=O)N(C)C)cc1,0.72,0.1
O=C(CCn1c(=O)oc2ccccc21)NCCc1ccccc1,-0.625,0.8
CC(C)(C)C(=O)OCc1nc(-c2ccc3c(c2)OCO3)cs1,1.31,-1.2
Cc1cc(C)n(-c2nnc(C)n2/N=C/c2ccco2)n1,-0.85,.
COc1ccc(Br)cc1/C=C1\N=C(c2c(-c3ccccc3)noc2C)OC1=O,-0.155,.
CC(Sc1ncnc2ccccc12)C(=O)O (stereo not given),.,-0.5

# (continued)
SMILES,CapD inh,AID504770
C=CCN1C(=O)CC(C(=O)Nc2ccc(OC)cc2)SC1=Nc1ccc(Cl)cc1 (stereo not given),-0.665,.
CN1CCC(NCc2ccccc2)CC1,.,-0.8
COCCN1C(=O)c2ccccc2C(C(=O)N2CCCC2)C1c1c[nH]c2ccccc12 (stereo not given),0.465,0.7
CC1CN(C(=O)CSc2nc3scc(-c4ccccc4)c3c(=O)n2N)CC(C)O1 (stereo not given),.,0.4
O=C(c1ccccc1)N1CCCN(c2c(Cl)cncc2Cl)CC1,0.375,1.3
Cc1sc2nc(C(C)C)n3c(=S)[nH]nc3c2c1C,.,-0.1
COC(=O)c1ccc(CSC(=S)N(C)C)cc1,-0.61,-0.4
Cc1ccc2c(c1)nnn2C1CCN(CC(=O)N(c2ccccc2)c2ccccc2)CC1,.,-0.75
Cc1[nH]c2ccccc2c1C(=O)CN1C(=O)NC2(CCOc3ccccc32)C1=O (stereo not given),.,-0.7
O=C1NC(=Nc2ccccc2)S/C1=C/c1cccs1,-0.165,0.35
Cc1ccc(Nc2nc3ccccc3[nH]2)cc1,0.14,-2
Cc1ccc(C2(c3ccc(C)cc3)CC2C(=O)Nc2ccc(Br)cc2)cc1 (stereo not given),0.16,.
COc1cccc(NC(=O)c2cnc(SC)n(C)c2=O)c1,.,0.45
CCN(CC)c1ccc(/C=C/C(=O)NCCN2CCC(N(C)C3CCCCC3C)CC2)cc1 (stereo not given),20.8,-1.1
O=c1onc(-c2cccc(C(F)(F)F)c2)n1-c1ccccc1,1,-0.6
Cc1cccc(CC(=O)Nc2cc(C)c3c(=O)oc4ccccc4c3n2)c1,.,1.4
CN(C)/C=C\C(=O)c1nc2ccccc2n1Cc1ccc(C(F)(F)F)cc1,-0.115,.
Cc1cc(C)n2nc(SCc3ccc(Cl)cc3)nc2n1,0.755,-0.45
CSc1ccccc1NC(=O)CO/N=C(\C)c1cc2ccccc2o1,.,-0.45
CC1CN(Cc2cc(O)c(CN3CC(C)OC(C)C3)cc2O)CC(C)O1 (stereo not given),-0.135,-0.5
CCCCNC(=O)c1ccc(NS(=O)(=O)CC)cc1,-0.54,-1.05
CCOC(=O)NC(=O)Cn1nnc(-c2ccccc2C)n1,.,0.25
CCCC(=O)n1c(=O)oc2cc(Br)ccc21,0.09,-0.65
CCC(CC)NC(=O)Cc1ccccc1OC,0.35,-0.25
CCC1COC(c2cccn2Cc2ccc(F)cc2Cl)=N1 (stereo not given),-0.675,2.1

# 19 structures from above, sorted by molar mass, lowest first:
SMILES,CapD inh,AID504770
C=C(C)C(=O)Nc1ccc(O)cc1C(=O)O,-1.1,-0.05
Cc1ccc(Nc2nc3ccccc3[nH]2)cc1,0.14,-2
OCCP(c1ccccc1)c1ccccc1,0.285,-0.75
CCCCNC(=O)Cn1c(=O)oc2ccccc21,.,1.6
Cc1cc(C)n(-c2nnc(C)n2/N=C/c2ccco2)n1,-0.85,.
Cc1sc2nc(C(C)C)n3c(=S)[nH]nc3c2c1C,.,-0.1
CC(=O)Nc1oc(-c2ccco2)c(-c2ccco2)c1C#N,.,-0.1
O=C1NC(=Nc2ccccc2)S/C1=C/c1cccs1,-0.165,0.35
CCOC(=O)NC(=O)Cn1nnc(-c2ccccc2C)n1,.,0.25
Cc1cc(C)n2nc(SCc3ccc(Cl)cc3)nc2n1,0.755,-0.45
CCC1COC(c2cccn2Cc2ccc(F)cc2Cl)=N1 (stereo not given),-0.675,2.1
COc1ccc(-c2nnc3ccc(SCC(N)=O)nn23)cc1,0.285,-1.45
COc1cc2c(cc1OC)C(c1cccs1)N(C(=O)C1CC1)CC2 (stereo not given),.,0.95
COC(=O)c1sccc1NC(=O)CSc1cc(Cl)ccc1Cl,-0.22,.
COc1ccc2nc(NC(=O)Cc3nn(C)c(=O)c4ccccc34)sc2c1,-0.345,.
Cc1ccc2c(c1)nnn2C1CCN(CC(=O)N(c2ccccc2)c2ccccc2)CC1,.,-0.75
Cc1ccc(S(=O)(=O)N2CCN(C(=O)CCN3C(=O)c4ccccc4C3=O)CC2)cc1,.,0
CCOC(=O)c1ccc(NC(=O)c2ccc(CN3CC(=O)N4CCCCC4C3=O)cc2)cc1 (stereo not given),0.38,0.1
CCN(CC)c1ccc(/C=C/C(=O)NCCN2CCC(N(C)C3CCCCC3C)CC2)cc1 (stereo not given),20.8,-1.1

# Following part
SMILES,CapD inh,AID504770
Cc1ccc(S(=O)(=O)N2Cc3ccccc3C2)cc1,-0.64,-0.4
O=C(CCN1C(=O)/C(=C/c2ccccc2)SC1=S)Nc1ccccc1,-0.075,-1.1
Cc1ccc(CNC(=O)c2nc3c(nnn3Cc3ccco3)c(=O)[nH]2)cc1,0.175,-0.85
C/C(=N\N=C(c1ccccc1)c1ccccc1)c1ccco1,.,-0.8
O=C1CSC(c2ccc(Cl)cc2)C(=O)N1c1ccc(C(F)(F)F)cc1 (stereo not given),-0.225,.
Cc1ccc(NC(=O)CSc2nc3ccc(NC(=O)CSc4nncn4C)cc3s2)cc1Cl,0.265,.
O=C(c1cc(Cl)nc(Cl)c1)N(Cc1cc2cccc3c2n(c1=O)CCC3)c1cccc(C(F)(F)F)c1,-0.615,.
O=C(c1ccccc1)c1cc(-c2ncc(C(F)(F)F)cc2Cl)no1,-0.405,.
COc1cccc(SCC(=O)NC2Cc3ccccc3C2)c1,-0.165,.
CCCSc1nnc2c(n1)OC(C)=Nc1ccc(Br)cc1-2,0.495,0.85
CNC(=O)c1nc(-c2ccccc2)oc1C,.,-0.35
CC(C)C(C)(C#N)NC(=O)Cn1cc(Br)ccc1=O (stereo not given),.,0.6
CC(CC(=O)c1cccs1)CC(=O)c1cccs1,.,-1.1
CSc1sc(C#N)c2c1C(=O)CC(c1ccc(C)cc1)C2 (stereo not given),-0.525,-0.45
CC1CCN(C(=O)c2ccc3c(c2)C(=O)N(CCC2=CCCCC2)C3=O)CC1,0.82,1.45
CCCCN1Cc2c(n(CC(=O)c3ccc(OC)cc3)c3cc(-c4ccccc4)nn3c2=O)C1=O,79.5,1.2
O=C(O)C1CCN(c2ncnc3scc(-c4ccccc4)c23)CC1,0.165,0.2
O=C1COc2cc(S(=O)(=O)CCC(=O)N3CCCCC3)c(Cl)cc2N1,0.395,-0.25
COc1cccc2c1O/C(=N\O)C(C(=O)Nc1cccc(Br)c1)C2 (stereo not given),0.3,-0.45
Clc1ccc2nc(N3CCCC3)sc2c1,.,-0.7
CSC(=Nc1cccc(C(F)(F)F)c1)N1CCCC1,0.435,.
O=C(O)C(Cc1ccccc1)NS(=O)(=O)c1cccs1 (stereo not given),-0.56,-0.55
CC(=Nc1cccc(Br)c1)c1sc2ccccc2c1O,-2.41,.
C=CCN1C(=O)/C(=C2/C(=O)N(CCC)c3ccc(Br)cc32)SC1=S,0.36,1.25
O=C(CSc1nc2c(sc3ccccc32)c(=O)n1Cc1ccccc1)NCCC1=CCCCC1,67.1,0.2

# Next entries
SMILES,CapD inh,AID504770
CN1CCN(c2cc(C(F)(F)F)cnc2C(=O)c2ccc([N+](=O)[O-])cc2)CC1,-0.695,.
Nc1ncc(C(O)(C(F)(F)F)C(F)(F)F)s1,.,-0.75
COc1cccc2cc(-c3nc4ccccc4s3)c(=O)oc12,0.905,-0.3
O=C(CSc1ccc2c(c1)OCCO2)c1ccc[nH]1,.,-0.9
O=C(Nc1ccccc1F)C1CCCC1,0.12,-1.4
CC(OC(=O)/C=C/c1ccc(Br)o1)C(=O)Nc1ccc2c(c1)OCO2 (stereo not given),.,-0.9
O=C1CSC(=Nc2ccccc2)N1Cc1ccccc1,6.29,0
COc1ccc2nc3oc(C(=O)Nc4cccc(SC)c4)cc3cc2c1,27,-0.95
Cc1ccc(N2C(=O)/C(=C/c3ccc(-c4cc(Cl)ccc4Cl)o3)C=C2c2ccccc2)c(Br)c1,-0.25,.
Cc1cccc2nc(CSc3nc4[nH]ncc4c(=O)n3-c3ccc(Br)cc3)cc(=O)n12,0.485,.
Cc1cc(C(=O)Nc2cc(C(F)(F)F)ccc2N2CCCC2)n(C)n1,0.36,0
CC(=O)Nc1ccc(Nc2cc(C(F)(F)F)nc3ncnn23)cc1,.,1.65
O=c1ccc(-c2ccccc2)nn1Cc1ccncc1,.,0.45
CCCCOC(=O)Nc1ccccc1C(N)=O,1.56,0.15
CSC(=S)N(C)c1ccccn1,0.01,-0.5
CS(=O)(=NS(=O)(=O)c1ccc(Cl)cc1)c1ccccc1 (stereo not given),-0.24,-0.45
CC(=O)Nc1nc2ccccc2nc1Cl,-7.65*,0.7
CN1CCN(S(=O)(=O)c2ccc(NN)nc2)CC1,.,1.15
CCCCCCOC(=O)c1ccc2c3c(onc13)-c1ccccc1C2=O,0.28,.
O=C(c1cc2nc(-c3cccs3)cc(C(F)(F)F)n2n1)N1CCN(c2ccccc2)CC1,-0.45,.
